# HPGD block – qHTS Assay for Inhibitors of HPGD (15-Hydroxyprostaglandin Dehydrogenase); 15-hydroxyprostaglandin dehydrogenase [NAD(+)] (Homo sapiens), P15428; purified HPGD, NADH fluorescence kinetic, PGE2 substrate; Potency, µM, inactives show top-dose activity change, negative = inhibition, most hits filed as inhibitors; actives 4.3% (n = 150,000); AID 894, 2007; active = well fitted inhibition curve with a large enough effect (not every such curve was filed as active); inconclusive = small, poorly fitted or top-dose-only effect, or another doubt; inactive = no such curve, though single readings can be large or run the other way;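 further: top concentration of the series not given in the record; plate controls included wells without enzyme; inactives centre near -10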
# Target sequence (P15428 whole entry, looked up): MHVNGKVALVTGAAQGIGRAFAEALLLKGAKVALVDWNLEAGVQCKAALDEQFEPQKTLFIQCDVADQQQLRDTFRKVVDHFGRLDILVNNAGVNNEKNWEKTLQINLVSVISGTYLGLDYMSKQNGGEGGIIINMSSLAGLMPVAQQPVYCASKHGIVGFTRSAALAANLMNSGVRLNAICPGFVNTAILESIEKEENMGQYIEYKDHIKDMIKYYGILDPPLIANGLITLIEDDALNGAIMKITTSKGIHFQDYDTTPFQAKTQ
#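 20 nM HPGD preincubated 15 min at room temperature with compound in 50 mM Tris-HCl pH 8, 0.01% Tween 20. Started with 1 mM NAD+ and 30 uM prostaglandin E2; NADH fluorescence (360/450 nm) read 5 times over 30-s intervals, last minus first.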
# An asterisk follows results filed as active; ? = inconclusive. On the % scale 0 is the no-effect control and ±100 the full control effect; potency means the concentration at half of the fitted maximal effect.
SMILES,HPGD block
COc1cccc(-n2c(C)nnc2SCC(=O)Nc2ccccc2N2CCOCC2)c1,-4%
O=C(O)CCNS(=O)(=O)c1ccc2c(c1)Cc1ccccc1-2,-19%
O=C(CN(C(=O)c1cc2c(s1)CCC2)C1CCCC1)NCc1cccs1,-6%
C/C(=N\NC(=O)c1cc(-c2cccnc2)nc2ccccc12)c1ccccc1O,-19%
CCOCN(C(=O)Cn1c(COC)nc2ccccc21)c1c(C)cccc1CC,-13%
Cc1ccc2c(NC(=O)C3CC3)c(C)ccc2n1,4%
CCCC(=O)NCCc1ccc(S(N)(=O)=O)cc1,-12%
COc1ccc(C2c3c4c(n(C)c3CCN2C)CCN(C)C4c2ccc(OC)cc2)cc1 (stereo not drawn),-1%
CCOC(=O)N1CCC(NC(=O)C2CCCN(S(=O)(=O)c3ccc4c(c3)oc(=O)n4C)C2)CC1 (stereo not drawn),-3%
Cc1ccc(NC(=O)CCC(=O)NNS(=O)(=O)c2ccccc2)c(C)c1,-9%
CC1=NN(C(=O)c2ccccc2-n2cccc2)C(O)(C(F)(F)F)C1 (stereo not drawn),-9%
CC(C)(C)c1cc(NC(=O)COC(=O)c2ccc3c(=O)n4c(nc3c2)CCC4)n(-c2ccccc2)n1,-23%
O=C(CN(c1ccc(F)cc1)S(=O)(=O)c1ccccc1)NCCSC1CCCCC1,-13%
O=C(NC1CCCCCC1)c1cc(S(=O)(=O)N2CCOCC2)ccc1N1CCCCC1,-8%
Cc1nn(CCOc2ccccc2)c(=O)n1-c1ccccc1,-2%
N#CC1(C#N)C(c2ccccc2)OC23CCCCCC2C1(C#N)C(=N)O3 (stereo not drawn),?
Cc1cc(NS(=O)(=O)c2ccc(OCCNS(C)(=O)=O)cc2)no1,1%
CC1=C/C(=N\OC(=O)/C=C/c2ccccc2)C(C)=CC1=O,-2%
CN(C)CCCNc1c(C(=O)O)cnc2c1cnn2C,-11%
CC1CCC(C(C)C)C(OP(=O)(c2ccc(N(C)C)cc2)C(O)c2cccnc2)C1 (stereo not drawn),-2%

# 15 of the compounds above, tab-delimited.
molecule	HPGD block
O=C(CN(C(=O)c1cc2c(s1)CCC2)C1CCCC1)NCc1cccs1	-6%
C/C(=N\NC(=O)c1cc(-c2cccnc2)nc2ccccc12)c1ccccc1O	-19%
CCOCN(C(=O)Cn1c(COC)nc2ccccc21)c1c(C)cccc1CC	-13%
Cc1ccc2c(NC(=O)C3CC3)c(C)ccc2n1	4%
CCCC(=O)NCCc1ccc(S(N)(=O)=O)cc1	-12%
COc1ccc(C2c3c4c(n(C)c3CCN2C)CCN(C)C4c2ccc(OC)cc2)cc1 (stereo not drawn)	-1%
CCOC(=O)N1CCC(NC(=O)C2CCCN(S(=O)(=O)c3ccc4c(c3)oc(=O)n4C)C2)CC1 (stereo not drawn)	-3%
Cc1ccc(NC(=O)CCC(=O)NNS(=O)(=O)c2ccccc2)c(C)c1	-9%
CC1=NN(C(=O)c2ccccc2-n2cccc2)C(O)(C(F)(F)F)C1 (stereo not drawn)	-9%
CC(C)(C)c1cc(NC(=O)COC(=O)c2ccc3c(=O)n4c(nc3c2)CCC4)n(-c2ccccc2)n1	-23%
O=C(CN(c1ccc(F)cc1)S(=O)(=O)c1ccccc1)NCCSC1CCCCC1	-13%
O=C(NC1CCCCCC1)c1cc(S(=O)(=O)N2CCOCC2)ccc1N1CCCCC1	-8%
Cc1nn(CCOc2ccccc2)c(=O)n1-c1ccccc1	-2%
N#CC1(C#N)C(c2ccccc2)OC23CCCCCC2C1(C#N)C(=N)O3 (stereo not drawn)	?
Cc1cc(NS(=O)(=O)c2ccc(OCCNS(C)(=O)=O)cc2)no1	1%

# Following part.
SMILES,HPGD block
CC(C)Cn1c(N)c(C(=O)NCc2cccs2)c2nc3ccccc3nc21,?
COC(=O)c1ccc(COc2cccc3c2CCN(Cc2ccccc2)C3=O)o1,-14%
O=C(NCc1cccs1)C1CCCN(c2nc3ccccc3o2)C1 (stereo not drawn),-14%
CCC1Oc2ccc(C)cc2N(CC(=O)NCCC2=CCCCC2)C1=O (stereo not drawn),-1%
C=CCNc1nc(-c2ccccn2)nnc1-c1ccccc1,-21%
CC(=O)N1CCN(CC(=O)Nc2ccccc2Sc2ccc(Cl)cc2)CC1,7%
Fc1ccc2[nH]c3c(N4CCN(c5ccccc5)CC4)ncnc3c2c1,?
O=[N+]([O-])c1ccc(S(=O)(=O)N2CCN(Cc3c[nH]c4ccccc34)CC2)cc1,-24%
CC1(C)CC(=O)C=C(Nc2ccccc2O)C1,?
Cc1nc(S(=O)(=O)N2CCOCC2)c(C#N)c(C)c1Cl,-7%
Cc1nc(NC(=O)COC(=O)CCc2nc3ccccc3s2)c(Cl)cc1Cl,-1%
CC1(C)CCC2(C(=O)O)CC[C@]3(C)C(=CCC4[C@]5(C)CCC(O)C(C)(C)C5C(O)C[C@]43C)C2C1 (stereo partly drawn),?
O=C(c1cccs1)n1nc(-c2ccco2)nc1SCc1ccccc1,?
CCCCCOC(=O)Cn1c(N2CCOCC2)nc2c1c(=O)[nH]c(=O)n2C,-8%
C/C(=N\NC(=O)c1nn(C)cc1Cl)c1ccncc1,-4%
CCOC(=O)c1sc(=NC(=O)c2cc(OC)c(OC)c(OC)c2)n(C)c1C,?
COCC(=O)Nc1nc(-c2ccccc2)ns1,-26%
CCn1c(CSc2nnc(-c3ccoc3C)n2C)nc2cc(S(=O)(=O)N(C)C)ccc21,-6%
COC(=O)c1c2c(nc3ccccc13)CCC2,?
O=C(CSc1nc2[nH]ncc2c(=O)[nH]1)N1CCCC1,-6%
O=C(c1ccccc1Cl)N1N=C(c2ccc(Br)cc2)CC1c1nc2ccccc2[nH]1 (stereo not drawn),-20%
O=c1cc(-c2cccc(F)c2)[nH]c2ccc(Cl)cc12,-7%
Cc1cc(C(F)(F)F)c(C#N)c(SCC(=O)NC(C)(C)C)n1,-8%
O=S(=O)(c1ccc(Oc2ccc(S(=O)(=O)N3CCOCC3)cc2)cc1)N1CCOCC1,-1%
NC(=O)c1ccsc1NC(=O)CSc1nc2ccccc2c(=O)n1CCCO,-1%
CC(=O)Nc1ccc(CN2CCCCCCC2)cc1,0%
Cn1cc(CN(CCCN2CCOCC2)C(=S)Nc2cccc(Cl)c2)c2ccccc21,-7%
COc1ccc(-n2c(C)cc(C(=O)COC(=O)c3cc(OC)c(OC)cc3NC(=O)c3cccs3)c2C)cc1,?
Cc1ccc(/C(O)=C2/C(=O)C(=O)N(CCCn3ccnc3)C2c2ccccn2)cc1 (stereo not drawn),1%
Cc1cc(C)nc(N2CCCC(C(=O)Nc3ccc4c(c3)OCCO4)C2)n1 (stereo not drawn),-4%
C/C=C/Cn1c(Br)nc2c1c(=O)[nH]c(=O)n2C,-7%
COc1ccc(C)cc1-n1nnnc1SCC(=O)c1ccc2c(c1)OCCO2,-13%
CN(C)Cc1ccccc1Sc1cccc2ccccc12,-11%
COc1ccccc1NC(=O)c1ccc(NS(=O)(=O)c2ccc(F)c(Cl)c2)cc1,-10%
O=C1CCCc2oc3ccc(O)cc3c21,-15%
O=C(NN=C1CCCC1)C(=O)Nc1cccc(C(F)(F)F)c1,-7%
Cc1ccccc1Oc1cc(NC(=O)CCCn2nc(C)c([N+](=O)[O-])c2C)cc([N+](=O)[O-])c1,-7%
Cc1ccc(C(=O)NC(=S)Nc2ccc3c(c2)OCCO3)c(C)c1,-2%
CCOc1cc(/C=N/NC(N)=O)cc(Br)c1OCc1ccccc1,-7%
COCCSc1ccccc1C(=O)NCCCn1ccnc1,?
CCOC(=O)CN(C(=O)CSc1nnc(C)n1-c1ccccc1)c1cccc([N+](=O)[O-])c1,-3%
O=C(CNS(=O)(=O)c1cccc(Cl)c1)OCc1csc(-c2ccccc2)n1,-8%
O=C(NCc1cccnc1)NC1CCCN1S(=O)(=O)c1ccc(Cl)cc1 (stereo not drawn),2%
CC(=O)OCC(=O)[C@@]1(O)CC[C@H]2[C@@H]3CCC4=CC(=O)CC[C@]4(C)[C@H]3C(=O)C[C@@]21C,-19%
O=C(NCC1CCCO1)C(c1cccs1)N(C(=O)Cn1nnc(-c2cccs2)n1)C1CCCC1 (stereo not drawn),-4%
CN(C(=O)N1CCN(c2ccccn2)CC1)c1ccccc1,-19%
CN1CCN(S(=O)(=O)c2ccc(NC(=O)c3ccc(Br)s3)cc2)CC1,-7%
COC(=O)C1=C(C)NC(=O)NC1c1cn(-c2ccccc2)nc1-c1cccs1 (stereo not drawn),-9%
Cc1ccc2c(c1)NCC(C(=O)NC1CCC(C)CC1)O2 (stereo not drawn),-26%
COc1ccc(/C=C/C(=O)Nn2cnnc2)cc1,-18%

# (cont.)
SMILES,HPGD block
CC(C)OCCCNc1ncnc2c1cnn2-c1ccccc1,1%
Cc1cccn2c(=O)c(/C=C(\C#N)S(=O)(=O)c3ccccc3)c(Oc3ccc(Cl)cc3)nc12,-15%
O=C1c2oc3ccc(Cl)cc3c(=O)c2C(c2cccnc2)N1Cc1ccco1 (stereo not drawn),-2%
Cc1ccc(Nc2nc(C(=O)N3CCC(C(=O)N4CCN(C)CC4)CC3)cs2)cc1,-2%
CCC(C)(C)C1CCC2(CC1)NC(CO)(CO)CO2 (stereo not drawn),-8%
Cc1ccc2nc(NC(=O)CSc3nncc(=O)n3N)sc2c1,-11%
COC(=O)Nc1cc(C(F)(F)F)ccc1N1CCN(c2ccccc2)CC1,-10%
C/C(=N/OC(=O)c1cccc(Cl)c1)c1nccs1,-19%
O=C1CC(c2ccccc2)CC(O)=C1C=NCc1ccccc1 (stereo not drawn),-4%
C[C@@H]1C[C@@H]2[C@H]3CCC4=CC(=O)C=C[C@]4(C)[C@]3(F)[C@@H](O)C[C@]2(C)[C@@]1(O)C(=O)CO,1%
CCN(CC)S(=O)(=O)c1cccc(-c2nnc(SCCOc3ccc(Cl)cc3)o2)c1,-14%
O=C(O)CCC(=O)Nc1ccccc1N1CCOCC1,-8%
O=C(COC(=O)c1ccc(Br)o1)Nc1ccc(S(=O)(=O)N2CCCC2)cc1,-13%
CCN(CC)C(=O)C(=O)c1c(-c2ccccc2)[nH]c2ccccc12,2%
COC(=O)[C@H]1C[C@H]2CC[C@H](O)C[C@H]2N1Cc1c(F)cccc1Cl,-3%
Cc1nn(Cc2cccc(C(=O)NC(C)c3ccc(C(C)(C)C)cc3)c2)c(C)c1[N+](=O)[O-] (stereo not drawn),-9%
CCN1CCc2c(sc(NC(=O)c3ccc(S(=O)(=O)N4CCOCC4)cc3)c2C(N)=O)C1,-14%
Cc1ccc(C(=O)NC(=S)Nc2cccc(NC(=O)c3ccccc3)c2)cc1[N+](=O)[O-],-14%
COc1cccc2c(=O)n(CC(=O)N3CCN(c4ccccc4)CC3)ccc12,-10%
C=CCN1C(=O)C(CC(=O)NCC)SC1=Nc1ccc(S(N)(=O)=O)cc1 (stereo not drawn),2%
Cn1cnc(S(=O)(=O)Nc2ccc(C(F)(F)F)cc2)c1,-9%
O=C(CN1CCCCCC1)N/N=C/c1cccs1,-19%
CCNc1nc(Oc2ccccc2)nc(OC(C)C(=O)OCC)n1 (stereo not drawn),-3%
Cc1ccc(CN2C(=O)CCC2C(=O)NCc2ccc3c(c2)OCO3)cc1 (stereo not drawn),-11%
Cc1ccc(NC(=O)CSc2nc(=O)cc(N)n2-c2ccccc2)cc1,-5%
COc1ccc(CC(=O)Nc2ccc(-c3csc(C)n3)cc2)cc1,-7%
CC(=O)NS(=O)(=O)c1ccc(NC(=O)NC2CCCCC2)cc1,-11%
CC(=O)Nc1ccc(Nc2ncnc3c2cnn3-c2ccc(C)cc2C)cc1,-23%
COc1nc(-c2ccc(C)cc2)ccc1-c1noc(-c2cccnc2)n1,?
CNC(=O)N(C1=NCCCCC1)c1ccc(Br)cc1,-16%
O=C(NC1CCCC1)C(c1ccccc1F)N(C(=O)c1ccco1)C1CCCC1 (stereo not drawn),-12%
COC(=O)c1ccc(NC(=O)CSc2nnc(C(C)NC(=O)c3ccccc3Cl)n2C)cc1 (stereo not drawn),-14%
C=CCn1c(NC)cc(=O)n(C)c1=O,-3%
CCN(CC)C(=O)c1ccc2c(c1[N+](=O)[O-])C(=O)c1ccccc1C2=O,?
CCN1CC=C2C(C#N)=C(N)C(C#N)(C#N)[C@H](c3ccoc3)[C@H]2C1,?
COc1cccc(OC)c1C(=O)Nc1ccc(N2CCCCC2)cc1,-7%
CC(=O)Oc1ccccc1C(=O)Nc1ncc([N+](=O)[O-])s1,-13%
Cc1cccc(OCCOc2ccccc2C=C(C#N)C#N)c1,-5%
CCOc1ccc2[nH]c(=O)c(C(c3nnnn3Cc3ccco3)N3CCCC(C)C3)cc2c1 (stereo not drawn),?
CCOC(=O)c1c(Nc2ccc(Cl)cc2)sc(/C=C2\C=Nc3ccccc32)c1O,-1%
Cc1cc(C)c[n+](CC(=O)c2ccc(-c3ccccc3)cc2)c1,-29%
Cn1nc(C(=O)NCc2cccnc2)c2ccccc2c1=O,3%
O=C(c1ccco1)N1CCN(C(=O)C2CC(c3ccc(Cl)c(Cl)c3)=NO2)CC1 (stereo not drawn),-9%
Cc1ccccc1C(=O)N1CCN(c2ccc(NC(=O)c3ccco3)cc2Cl)CC1,?
CCOc1ccc(N2C(=O)CC(SC(=NC)Nc3ccc(F)cc3)C2=O)cc1 (stereo not drawn),-13%
Cc1cc(C(=O)CN2C(=O)NC3(CCCc4sccc43)C2=O)c(C)n1-c1ccccc1 (stereo not drawn),-12%
C=CCNC(=O)NC(=O)COC(=O)CCCSc1nc2ccccc2[nH]1,-1%
CCNc1ncc2nc(-c3ccc(OC)cc3)c(=O)n(-c3ccc(OC)cc3)c2n1,?
O=C(c1cccc(-c2nnc(-c3ccccc3)o2)c1)N1CCCCC1,7.9µM*
CCCCC(=O)Nc1ccccc1C(=O)OCC(=O)c1ccc2c(c1)OCCO2,-25%
CC1=Nn2c(nnc2-c2ccccc2)SC1,-25%
O=C1NC(CCc2ccccc2)C(=O)N1Cc1cccc2ccccc12 (stereo not drawn),-27%

# Screens as filed in PubChem.

# This is a subset; rates above refer to the full screens.
